# Mtb H37Rv – Mycobacterium tuberculosis H37Rv growth inhibition, putative kinase inhibitor library, confirmatory dose response (AID 2842) | M. tuberculosis H37Rv growth inhibition; higher % means a stronger effect; some inactives read as strong as hits | inhibition, % at 10 µg/mL, or IC90 in µg/mL where a hit was titrated | actives 5.2% (n = 24,000);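 active = confirmed in a dose series; about a fifth of its hits are not listed in these tables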;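 also: bacteria incubated one week before Alamar blue readout; 0% = bacteria only wells and 100% = bacteria with high antibiotic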
# Starred values were filed as active, the others as inactive.
SMILES	Mtb H37Rv
CCOC(=O)CSc1nnc(Cn2c(=O)sc3ccccc32)n1C	4%
Cn1c(=O)[nH]c(=O)c2c1nc(N1CCCCC1)n2CCCSc1nc2ccccc2o1	-6%
CC(C)(C)c1ccc(C(=O)Nc2nc3ccc(S(=O)(=O)N4CCCC4)cc3s2)cc1	25%
COc1ccc2nc(-c3cccc(NS(=O)(=O)c4cc(F)ccc4F)c3)cn2n1	-6%
COC(=O)c1c(NC(=O)c2cc(Cl)sc2Cl)sc2c1CCN(C(C)=O)C2	14%
COC(=O)c1ccc(NC(=O)CSc2nnc(Cn3c(=O)sc4ccccc43)n2C)cc1	3%
CCCc1cc(=O)[nH]c2nnc(SCc3cccc(C(F)(F)F)c3)n12	-3%
COC(=O)c1ccc(NC(=O)CSc2nnc(CCC(=O)O)c(=O)n2N)cc1	-10%
COc1ccc(OC)c(C2/C(=C(\O)c3ccncc3)C(=O)C(=O)N2CCCN(C)C)c1 (configuration not stated)	-5%
O=C(/C=C/c1ccccc1)Nc1nc2ccc(S(=O)(=O)N3CCCCC3)cc2s1	11%
CCOC(CNc1ncnc2c1cnn2-c1ccc(Cl)c(Cl)c1)OCC	6%
NC(=O)c1cc2cc(Cl)ccc2o/c1=N/NC(=O)c1cccc(F)c1	-2%
O=c1c(NCCc2ccccc2)nccn1-c1ccc2c(c1)OCCO2	12%
NC(=O)c1c(NC(=O)c2cccs2)sc2c1CCN(Cc1ccccc1)C2	-5%
Cc1cccc(CSc2nc3c(c(=O)[nH]c(=O)n3C)n2Cc2ccccc2Cl)c1	7%
COc1cc2nc(CC#N)[nH]c(=O)c2cc1OC	-2%

# Part of the list above, as labelled records:
NC(=O)c1cc2cc(Cl)ccc2o/c1=N/NC(=O)c1cccc(F)c1
  Mtb H37Rv = -2%

CCOC(=O)CSc1nnc(Cn2c(=O)sc3ccccc32)n1C
  Mtb H37Rv = 4%

COC(=O)c1ccc(NC(=O)CSc2nnc(Cn3c(=O)sc4ccccc43)n2C)cc1
  Mtb H37Rv = 3%

# Continuation:
SMILES	Mtb H37Rv
O=C(NNc1nc2c(F)cccc2s1)c1nc2ccccc2s1	-7%
COC(=O)c1sc(NC(=O)CSc2ncnc3sc(C)c(C)c23)c(C(=O)OC)c1C	-9%
Cc1ccc(C(=O)Nc2c(C(=O)Nc3ccc([N+](=O)[O-])cc3)oc3ccccc23)cc1C	5%
Cc1ccc(CNC(=O)CCCn2c(=S)[nH]c3ccc(Br)cc3c2=O)cc1	-4%
O=C(Cn1cc(C(=O)c2ccccc2)c(=O)c2cc3c(cc21)OCCO3)Nc1ccc(F)c(F)c1	11%
Cc1nnc(SCCn2c(N3CCN(c4cccc(Cl)c4)CC3)nc3c2c(=O)n(C)c(=O)n3C)s1	2%
O=C(CS(=O)(=O)c1ccccc1)Nc1nnc(-c2cccs2)o1	-1%
Cc1cn2c3c(=O)[nH]c(=O)n(C)c3nc2n1-c1ccccc1O	-15%
O=S(=O)(c1cccc(-c2nn3c(-c4ccccc4Br)nnc3s2)c1)N1CCCCC1	7%
O=S(=O)(Nc1cccc(-c2ccc3nncn3n2)c1)c1ccc(Cl)s1	77%
O=C(Cn1ccccc1=O)c1ccc(O)cc1O	-3%
CCCNc1nc2c(c(=O)[nH]c(=O)n2C)n1Cc1ccc(F)cc1	0%
CCCSc1nc2c(c(=O)[nH]1)C(c1ccc(C)s1)C1=C(CC(C)(C)CC1=O)N2 (configuration not stated)	-1%
Nc1nc(SCC(=O)NCc2ccc(F)cc2)[nH]c(=O)c1NC(=O)c1ccco1	-4%
Cc1ccccc1-c1nnc(NC(=O)COc2ccccc2)s1	21%
Nc1nc(SCC(=O)Nc2cccc(Cl)c2)[nH]c(=O)c1NC(=O)c1ccc(Br)o1	-4%
O=c1cnnc(N/N=C/c2ccc(Cl)cc2Cl)[nH]1	1%
CCN1C(=O)c2cccc3c(NC(=O)CN4C(=O)c5ccccc5C4=O)ccc1c23	-12%
Cc1ccc(C2=Nn3c(nnc3-c3ccccc3)SC2)cc1	15%
COc1cc(/C=C\C(=O)NCCc2cc3c(C)ccc(C)c3[nH]c2=O)cc(OC)c1OC	-9%
CCOC(=O)c1nn(-c2ccc(C)cc2)c(=O)c2c(NC(=O)c3cccc([N+](=O)[O-])c3)scc12	4%
O=S(=O)(NCc1nnnn1-c1ccc(F)cc1)c1ccc(Cl)cc1	0%
CCOC(=O)c1nn(-c2ccc(OC)cc2)c(=O)c2c(NC(=O)COc3ccc4ccccc4c3)scc12	3%
Cc1cccc(-c2nnc(NC(=O)c3ccccc3)s2)c1	7%
CCCCSc1nc2c(c(=O)[nH]c(=O)n2C)n1CC(O)COc1cccc2ccccc12 (configuration not stated)	6%
Cn1ccc2c(OCC(N)=O)cccc2c1=O	-2%
COc1ccc(Nc2nc(NCCN3CCOCC3)nc3nccnc23)cc1	-5%
Cc1ccccc1-c1nnc(NC(=O)COc2ccc(Cl)cc2)s1	21%
O=C(Nc1ccccc1-c1nc2ccccc2[nH]1)c1coc2ccccc2c1=O	11%
Cn1c(Cn2c(=O)sc3ccccc32)nnc1SCC(=O)Nc1ccc2c(c1)OCCO2	4%
Cc1cc2cc(CCNC(=O)c3ccc(Cl)cc3Cl)c(=O)[nH]c2cc1C	1%
O=C(CC(C(=O)N1CCc2ccccc21)n1ccnc1)NCC1COc2ccccc2O1 (configuration not stated)	-11%

# Three of the compounds above, with each value named.
O=C(NNc1nc2c(F)cccc2s1)c1nc2ccccc2s1
  Mtb H37Rv: -7%

COC(=O)c1sc(NC(=O)CSc2ncnc3sc(C)c(C)c23)c(C(=O)OC)c1C
  Mtb H37Rv: -9%

Cc1ccc(C(=O)Nc2c(C(=O)Nc3ccc([N+](=O)[O-])cc3)oc3ccccc23)cc1C
  Mtb H37Rv: 5%

# Going on with the list.
SMILES	Mtb H37Rv
Nn1c(SCC(=O)Nc2cc(C(F)(F)F)ccc2Cl)nncc1=O	-9%
CCOC(=O)c1c(NC(=O)c2ccc(Cl)cc2)sc2c1CCC2	-1%
CCS(=O)(=O)c1cccc(C(=O)Nc2nc3c(Br)cccc3s2)c1	3%
COc1ccc(Nc2ncnc3scc(-c4ccccc4)c23)cc1	18%
CSc1ccccc1Nc1ncnc(N)c1[N+](=O)[O-]	5%
Cn1c(=O)[nH]c(=O)c2c1nc(N1CCOCC1)n2CCSc1nc2ccccc2s1	1%
COc1cccc(-c2nc(C(N)=O)c3[nH]c(=O)n(-c4ccc(C)c(C)c4)c3n2)c1O	-6%
O=C(Nc1nc(-c2cc([N+](=O)[O-])cs2)cs1)C1CC1	-5%
O=C1CC(NC23CC4CC(CC(C4)C2)C3)C(=O)N1c1ccc2c(c1)OCO2 (configuration not stated)	-9%
Nc1nc(SCC(=O)Nc2ccc3c(c2)OCO3)[nH]c(=O)c1NC(=O)c1ccc(F)cc1	6%
COc1ccc(-c2nc(NC(=O)c3ccc(C#N)cc3)sc2C)cc1	3%
O=C(CCc1n[nH]c(=O)[nH]c1=O)N/N=C/c1cccs1	7%
CCOC(=O)c1oc2ccccc2c1NC(=O)CC(c1ccccc1)c1ccccc1	4%
NC(=O)c1c(NC(=O)Cc2ccccc2)sc2c1CCN(Cc1ccccc1)C2	1%
Cc1cn2c3c(=O)n(Cc4ccccc4F)c(=O)n(C)c3nc2n1CCc1ccccc1	-8%
c1csc(-c2csc(Nc3nc4cc5c(cc4s3)OCO5)n2)c1	24%
CC(=O)N1N=C(c2cccs2)CC1c1ccc2ncccc2c1 (configuration not stated)	12%
COc1ccc(Cc2nnc(SCc3ccc(F)cc3)n(N)c2=O)cc1	8%
O=C(CCN1C(=O)c2ccccc2S1(=O)=O)Nc1ccc(F)c(F)c1	-2%
CCOc1ccc2nc(N(CCCn3ccnc3)C(=O)c3ccc(F)cc3)sc2c1	7.8µg/mL*
COCCNC(=O)C(=O)Nc1cc2c3c(c1)CCC(=O)N3CCC2	-5%
COc1ccccc1Cn1cc2c(-c3ccc(F)cc3)nnc-2c2cc3c(cc21)OCCO3	5%
Cc1csc2ncc(C(=O)Nc3ccc(F)c(C(F)(F)F)c3)c(=O)n12	-16%
CC(=O)c1cccc(N2C(=O)CCC2=O)c1	-5%
COc1ccc(C(=O)Nc2nnc(-c3ccc(C)cc3C)o2)cc1OC	82%
Cc1nnc(SCc2ccc(Cl)cc2Cl)n(N)c1=O	-3%
CCc1cccc(OCC(O)Cn2c(N=Nc3c(O)[nH]c(=O)[nH]c3=O)nc3c2c(=O)[nH]c(=O)n3C)c1 (configuration not stated)	-5%
CSc1ccc(CC(=O)Nc2sc3c(c2C(N)=O)CCN(C(C)=O)C3)cc1	47%
CS(=O)(=O)c1ccc(CC(=O)Nc2nnc(-c3ccccc3Cl)o2)cc1	-7%
CCCCCn1c(=S)[nH]c2cc(C(=O)NCCc3ccc(OC)c(OC)c3)ccc2c1=O	2%
CCOC(=O)c1ccc2nc(NC(=O)C(C)C)sc2c1	19µg/mL*
CC(=O)Nc1nc(SCC(=O)Nc2nnc(C)s2)[nH]c(=O)c1NC(=O)c1ccc(F)cc1	-6%

# (list continues)
compound,Mtb H37Rv
CC(=O)C(Sc1nc(-c2cccc(C)c2)nc2c1c(=O)n(C)c(=O)n2C)C(C)=O,9%
CC(=O)Nc1cccc(NC(=O)NC2CC(=O)N(c3ccc4c(c3)OCCO4)C2)c1 (configuration not stated),-9%
Cc1cc(C)cc(NC(=O)Cn2c(=O)n(Cc3ccccc3)c(=O)c3sc4ccccc4c32)c1,2%
Cc1ccc(NC(=O)CC2SC3=NCCN3C2=O)cc1 (configuration not stated),4%
CC(C)CCn1c(N2CCN(Cc3cccc(Cl)c3)CC2)nc2c1c(=O)[nH]c(=O)n2C,14µg/mL*
CCOc1cc(-c2nnc(NC(=O)c3cc4ccccc4cc3OC)o2)cc(OCC)c1OCC,2.7µg/mL*
CCS(=O)(=O)c1ccc(C(=O)Nc2nnc(-c3ccc4c(c3)OCCO4)o2)cc1,63%
COc1ccc(-c2nnc3ccc(SCC(=O)N4CCCCCC4)nn23)cc1OC,-2%
Cc1ccc(Nc2nc(Nc3ccc(F)cc3)nc3nccnc23)cc1C,25%
CCOc1ccccc1NC(=O)c1oc2ccccc2c1NC(=O)c1cc(OC)cc(OC)c1,7%
CC(C)(C)n1nc2c(c1NC(=O)COc1ccc3ccccc3c1)CS(=O)C2 (configuration not stated),-1%
Cc1ccc2sc(NNC(=O)c3cc(=O)c4ccccc4o3)nc2c1C,62%
O=C(CSc1nc2c(oc3ccccc32)c(=O)n1-c1ccccc1)Nc1ccccc1Cl,-1%
CCOC(=O)c1sc(N=Nc2c(C)nn(-c3ccccc3)c2N)c(C(=O)OCC)c1C,-2%
O=C(Nc1ccc(F)c(C(F)(F)F)c1)c1ccc(N2CCCCS2(=O)=O)cc1,0%
O=C(Nc1sc2c(c1-c1nc3ccccc3s1)CCCC2)c1ccc(N2C(=O)CCC2=O)cc1,-5%
COc1ccc(/C(O)=C2/C(=O)C(=O)N(Cc3cccnc3)C2c2ccco2)cc1OC (configuration not stated),3%
CCc1ccc(-c2csc(NC(=O)c3ccc4c(c3)OCCO4)n2)cc1,68%
CCCCNC(=O)C1C(=O)CN(c2ccccc2)C1=O (configuration not stated),-6%
COc1cccc2c(=O)n(CC(=O)Nc3ccc(C)cc3)ccc12,0%
O=C(Cn1cnc2c(cnn2-c2cccc(Cl)c2)c1=O)NCc1ccc2c(c1)OCO2,-14%
CCOC(=O)c1sc(NC(=O)c2ccc([N+](=O)[O-])s2)nc1C,-3%
CCOC(=O)c1sc(NC(=O)CCSc2ccccc2)cc1C,0.82µg/mL*
CCC(Sc1nncn1C)C(=O)Nc1nnc(-c2cccc(C)c2)s1 (configuration not stated),11%

# Single entries from above:
# COc1cccc2c(=O)n(CC(=O)Nc3ccc(C)cc3)ccc12 | Mtb H37Rv: 0%
# CCC(Sc1nncn1C)C(=O)Nc1nnc(-c2cccc(C)c2)s1 (configuration not stated) | Mtb H37Rv: 11%
# CCOC(=O)c1sc(NC(=O)c2ccc([N+](=O)[O-])s2)nc1C | Mtb H37Rv: -3%
# COc1ccc(/C(O)=C2/C(=O)C(=O)N(Cc3cccnc3)C2c2ccco2)cc1OC (configuration not stated) | Mtb H37Rv: 3%
# CCCCNC(=O)C1C(=O)CN(c2ccccc2)C1=O (configuration not stated) | Mtb H37Rv: -6%
# O=C(Cn1cnc2c(cnn2-c2cccc(Cl)c2)c1=O)NCc1ccc2c(c1)OCO2 | Mtb H37Rv: -14%
# CCc1ccc(-c2csc(NC(=O)c3ccc4c(c3)OCCO4)n2)cc1 | Mtb H37Rv: 68%

# The list continues.
compound,Mtb H37Rv
COc1cccc(N2CC(NC(=O)c3ccc(C)cc3)CC2=O)c1 (configuration not stated),3%
COc1ccc(-c2nnc3ccc(SCC(=O)N4CCc5ccccc54)nn23)cc1,-7%
O=C(O)CCCN1C(=O)C2C3CC(C2C1=O)C1C(c2ccccc2)c2sc(=O)[nH]c2SC31 (configuration not stated),2%
CCCc1cc(=O)[nH]c2nnc(SCc3cccnc3)n12,-14%
CCN(CC)S(=O)(=O)c1ccc(C(=O)Nc2nnc(-c3cc(Cl)ccc3Cl)o2)cc1,7.6µg/mL*
CCOc1ccccc1-n1c(C)cn2c3c(=O)[nH]c(=O)n(C)c3nc12,-8%
Cc1sc2ncnc(Sc3nnc4sc5ccccc5n34)c2c1C,-18%
O=C(CCc1ccccc1)Nc1nnc(-c2cccs2)o1,43µg/mL*
Cc1cc(C)cc(N2C(=O)C3N=NN(CC(=O)Nc4cccc(Cl)c4C)C3C2=O)c1 (configuration not stated),-11%
CC(=O)c1ccc(C(=O)Nc2nnc(-c3cccc(S(C)(=O)=O)c3)o2)cc1,-13%
COC(=O)c1c(NC(=O)c2cccs2)sc2c1CC(C)(C)NC2(C)C,5%
CN(C)S(=O)(=O)c1ccc(C(=O)N(Cc2ccccc2)c2nnc(C34CC5CC(CC(C5)C3)C4)s2)cc1,10%
COc1cccc(-c2csc(/C(C#N)=C/c3cc([N+](=O)[O-])ccc3OC)n2)c1,-4%
CN1CCOc2ccc(NC(=O)CN3C(=O)c4ccccc4C3=O)cc2C1=O,-7%
CCc1nnc(NC(=O)c2ccc(N3C(=O)CCC3=O)cc2)s1,-4%
NC(=O)c1oc2ccccc2c1NC(=O)c1ccc([N+](=O)[O-])s1,-4%

# Screening data (PubChem BioAssay)

# A portion of the library. The share of hits here may be higher or lower than overall.
